# Screening data: PubChem BioAssay, Fisher Drug Discovery Resource Center
# NPYLR7 agonist: agonists of mosquito NPYLR7 receptor, primary screen, cell-based, Aedes aegypti, calcium fluorescence, mosquito biting behavior; activation, % at 10 µM; 0.15% of 270,000 active; AID 1259423, 2018; Aedes aegypti neuropeptide Y-like receptor 7 (NPYLR7); HEK293T NPYLR7/Galpha15, GCaMP6s calcium fluorescence; in the data active means activation above about 40%;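 further: 0% = vehicle and 100% = reference agonist at the receptor; some compounds past the cut are filed as inactive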
# NPYLR7 agonist max-min: recorded beside NPYLR7 agonist, whose call it bears; activation, %; measured here: Max-Min RFU normalised activation; some inactives read as strong as hits;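 span of the calcium signal over five minutes; 0% = vehicle and 100% = native peptide agonist; compound fluorescence can raise it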
# Starred values were filed as active, the others as inactive; & = joins results of further samples. Not all compounds are listed, so the mix of outcomes need not match the whole.
# Start of the listing, in advance:
SMILES,NPYLR7 agonist,NPYLR7 agonist max-min
Cc1ccccc1CNC(=O)CS(=O)Cc1noc(CC(C)C)n1 (stereo not drawn),3,1
C=C(Br)COc1cc(C)nc(C)c1C#N,9,6
Cc1ccc(C)c(Cn2ccnc2CN(CC2CC2)C(=O)c2ccc(F)cc2)c1,-4,-1
Brc1cc2c(cc1COc1ccc(-c3nnco3)cc1)OCCO2,12,10
O=C(Nc1nnc(SCCc2ccccc2)s1)C1CCC1,21,13
O=C(Nc1ccc(SCc2ccncc2)nn1)c1cccs1,16,7
O=C1CCC(C(=O)Nc2ccc(F)c(-n3cccc3)c2)CN1 (stereo not drawn),-22,-24
COc1ccc(OC)c(S(=O)(=O)N2CCN(c3cc(-n4ccnc4)nc(C)n3)CC2)c1,-10,-14
CC(C)n1cnnc1CN(C)C(=O)C(O)c1ccc(C(F)(F)F)cc1 (stereo not drawn),3&10,1&2
COc1ccc(Nc2ccn(-c3nc(-c4ccccc4)oc3-c3ccccc3)c(=O)n2)cc1,-2,-1
CC(NC(=O)c1ccc(C#CC(C)(C)O)s1)C(=O)O (stereo not drawn),1,-1
COc1cccc(C(=O)NCc2ccccc2Cl)c1OC,6,7
COc1cccc(C(=O)N2CCN(C(c3ccccc3)c3ccc(Br)cc3)CC2)c1 (stereo not drawn),4,3
CCOC(=O)c1ccc(NC(=O)CSc2nnc(NC(=O)C3CC3)s2)cc1,-2,-7
Cc1n[nH]c(C)c1S(=O)(=O)N1CCN(S(=O)(=O)c2ccc3c(c2)OCCO3)CC1,4,7
Oc1ccc(Br)cc1CNCC(c1cccs1)N1CCCC1 (stereo not drawn),5,4

# All compounds of this part, repeating the preview:
SMILES,NPYLR7 agonist,NPYLR7 agonist max-min
Cc1ccccc1CNC(=O)CS(=O)Cc1noc(CC(C)C)n1 (stereo not drawn),3,1
C=C(Br)COc1cc(C)nc(C)c1C#N,9,6
Cc1ccc(C)c(Cn2ccnc2CN(CC2CC2)C(=O)c2ccc(F)cc2)c1,-4,-1
Brc1cc2c(cc1COc1ccc(-c3nnco3)cc1)OCCO2,12,10
O=C(Nc1nnc(SCCc2ccccc2)s1)C1CCC1,21,13
O=C(Nc1ccc(SCc2ccncc2)nn1)c1cccs1,16,7
O=C1CCC(C(=O)Nc2ccc(F)c(-n3cccc3)c2)CN1 (stereo not drawn),-22,-24
COc1ccc(OC)c(S(=O)(=O)N2CCN(c3cc(-n4ccnc4)nc(C)n3)CC2)c1,-10,-14
CC(C)n1cnnc1CN(C)C(=O)C(O)c1ccc(C(F)(F)F)cc1 (stereo not drawn),3&10,1&2
COc1ccc(Nc2ccn(-c3nc(-c4ccccc4)oc3-c3ccccc3)c(=O)n2)cc1,-2,-1
CC(NC(=O)c1ccc(C#CC(C)(C)O)s1)C(=O)O (stereo not drawn),1,-1
COc1cccc(C(=O)NCc2ccccc2Cl)c1OC,6,7
COc1cccc(C(=O)N2CCN(C(c3ccccc3)c3ccc(Br)cc3)CC2)c1 (stereo not drawn),4,3
CCOC(=O)c1ccc(NC(=O)CSc2nnc(NC(=O)C3CC3)s2)cc1,-2,-7
Cc1n[nH]c(C)c1S(=O)(=O)N1CCN(S(=O)(=O)c2ccc3c(c2)OCCO3)CC1,4,7
Oc1ccc(Br)cc1CNCC(c1cccs1)N1CCCC1 (stereo not drawn),5,4
COc1ccccc1OCC(=O)NN1C(=O)NC2(CCCCC2)C1=O,0,-2
COCCn1cnc2cnc(Nc3cccc(C)c3)cc21,8,6
Cc1cccc(CNC(=O)c2sc(=O)n(Cc3c(C)noc3C)c2C)c1,8,7
COc1cccc(-c2cc(C(=O)NCCc3ccc(Cl)cc3Cl)nc3cc(-c4ccccc4)nn23)c1,6,19
CCC(CC)CN1CCc2nnc(C(CC(C)C)NC(=O)c3cc(C)cc(C)c3)n2CC1 (stereo not drawn),16,14
CC(C)Oc1ccc(C(=O)N(C)C(C)C2(C)CC2)cn1 (stereo not drawn),0,-5
COc1ccc(-c2ccccc2NC(=O)C2CCCN(Cc3ccn[nH]3)C2)cc1 (stereo not drawn),10,5
COCCn1c(SCC(=O)Nc2nc3ccccc3s2)nc2c(c1=O)SC(C)C2 (stereo not drawn),1,-2
CC(C)(C)C(C)(O)C#CCN1CCCCC1 (stereo not drawn),4,4
O=C1C2C3C=CC(C3)C2C(=O)N1c1ccc2ccccc2c1 (stereo not drawn),3&1,2&-5
O=C(NCC1CCCO1)c1cnn2c(C(F)(F)F)cc(-c3ccc(F)cc3)nc12 (stereo not drawn),-2,-4
O=C(NC1CCCCCC1)c1cc(S(=O)(=O)N2CCCCC2)ccc1Br,9,4
Cc1cnc(C(=O)NCC(C)(c2ccccc2)c2ccccc2)cn1,0,-1
CCOC(=O)c1ccc2c(c1)nc(SCc1cc3c(cc1Cl)OCO3)n2Cc1ccccn1,11,3
CN(C)c1ccccc1NC(=O)N1CCCC1CN1CCCCC1 (stereo not drawn),-2,-3
CCC1=NN2C(=N)/C(=C/c3cccc(OS(=O)(=O)c4ccc(C)cc4)c3)C(=O)N=C2S1,0,0
Cc1nc(C)n(CC2CCCN(CC(=O)NC(C)(C#N)C3CC3)C2)n1 (stereo not drawn),0,22
Cn1c(NCc2ccccc2)nc2cnc(-c3ccccc3)cc21,12,2
COc1ccc(-n2nnnc2CNC(=O)Cc2ccc(-c3ccccc3)cc2)cc1,9,5
C=CCOC(=O)C1=C(C)NC(=O)NC1c1ccccc1F (stereo not drawn),-3,-8
Cc1cc2c(cc1C)NC(c1cc3c(cc1Cl)OCO3)C1C(=O)CC(C)(C)CC1=N2 (stereo not drawn),6,1
COc1ccc(-n2ncc3c2CC(C)(C)CC3NCc2nc3ccccc3nc2C)cc1 (stereo not drawn),6,2
COc1ccc(-c2cnc(-c3ccc(CNC(=O)c4cc(F)ccc4F)cc3)[nH]2)cc1,-1,0
COc1ccc(CN2CCC3(CC2)c2ccccc2[C@@H](NC(=O)c2cccs2)[C@@H]3OC)c(F)c1,26,6
O=C1N(Cc2ccc(F)cc2)C(c2ccccc2)=NOC12CCC2,0,-3
CC1(C(=O)Nc2cccc3cccnc23)CCN1C1Cc2ccccc2C1 (stereo not drawn),5,-2
Cc1cc(CC(=O)NCc2ccc(COCC(F)(F)F)cc2)n[nH]1,-3,-9
Fc1ccc(N=Cc2cccnc2)cc1F,-6,-8
COc1ccccc1C(=O)Nc1cc(-c2nc3ccccc3o2)ccc1Cl,2,-1
Cc1ccc(-n2ncc3c2CCCC3NC2CSCCSC2)cc1C (stereo not drawn),7,3
Cc1nc(CN(C)C(=O)c2coc(COc3ccc(F)cc3Cl)n2)no1,11,-7
Cc1cc2ccccc2n1CC(=O)N1c2ccccc2CC1C (stereo not drawn),8,6
Cc1ccc2c(=O)c(/C=N\NC(=O)CCC(=O)Nc3ccc(C(=O)O)cc3)coc2c1,-2,-1
COc1ccc(OCC(O)Cn2c(C)nc3ccccc32)cc1 (stereo not drawn),5,77
COc1ccc(C(=O)NC2CCN(c3ccccc3C(=O)NC3CC3)CC2)cc1,0,8
CCN(CC1CCOCC1)c1cc(C2CCCNC2)nc(C)n1 (stereo not drawn),7,-3
S=c1n(-c2ccccc2)cnn1CN1CCCC1c1cccs1 (stereo not drawn),-2,-3
COc1ccc(C(O)C2C(=O)NC(=S)NC2=O)c(C(=O)O)c1OC (stereo not drawn),-7,-8
COc1cc(NS(=O)(=O)c2ccc(F)c(F)c2F)c(OC)cc1Cl,7,8
CCOC(=O)N1CCN(Cc2nc3c(c(=O)n(C)c(=O)n3C)n2Cc2cccc(C)c2)CC1,0,-3
O=S(=O)(Cc1ccc(Cl)c(Cl)c1)NCc1cscn1,5,2
Cc1csc2nc(CNc3ccc4c(c3)OCCCO4)cc(=O)n12,3,-1
Cc1c(NC(=O)CCN2C(=O)C(C)Oc3ccccc32)cccc1[N+](=O)[O-] (stereo not drawn),-2,-3
CCOc1ccc(OCCOc2ccccc2[N+](=O)[O-])cc1,25,11
# Following part:
SMILES,NPYLR7 agonist,NPYLR7 agonist max-min
CN=c1scc(-c2ccccc2F)n1N=Cc1ccccc1,-6,-13
CC1CCCC(NC(=O)Cn2nnnc2C(C)(C)C)C1C (stereo not drawn),8&4,5&0
COc1ccccc1OCC1c2ccsc2CCN1C(=O)CN(CCN1CCCC1)C(=O)Nc1cccc(Cl)c1 (stereo not drawn),0,0
COc1ccc(C(=O)O/N=C2/CCCc3c2ccc(O)c3C)cc1OC,0,-1
O=C(CSc1nc2c3ccccc3ncn2n1)Nc1ccccc1[N+](=O)[O-],-1,-2
CC(=O)c1cccc(OCc2cc(C(=O)N(C)Cc3ccc(F)cc3)n[nH]2)c1,12,1
Brc1ccc(C2=Nc3ncnn3C(c3ccccc3)C2)cc1 (stereo not drawn),17,18
CC1CCCCN1S(=O)(=O)N1CCN(C(=O)OC(C)(C)C)CC1(C)C (stereo not drawn),1,1
CCN(CC)C(=O)Oc1ccc2c(ccn2Cc2ccc(/C=C/c3ccccc3)cc2)c1-c1cc(C)cc(C)c1,9,9
CCOC(=O)[C@@H]1CN(C(=O)c2cccc(OC)c2)[C@H]2c3cccc(F)c3O[C@@H]12,6,10
CC(C)(C)n1ncc2c(=O)n(NC(=O)COc3ccc(Cl)cc3)cnc21,4,2
Cc1ccn2c(=O)c(C(=O)NCCCO)c(O)nc2c1,-1,7
CC1CCc2c(sc(NC(=O)c3cccs3)c2C(=O)Nc2ccc(Cl)cc2)C1 (stereo not drawn),13,8
COCCN(Cc1c(-c2cccc(C)c2)noc1N1CCOCC1)C(=O)C1CC1,-2,5
CCCCN(C(=O)CCc1ccsc1)c1c(N)n(CCC)c(=O)[nH]c1=O,7,2
CC1CN2C(=O)CN(C(=O)C(C)(C)Oc3ccc(Cl)cc3)CC2c2ccccc21 (stereo not drawn),5,4
Cc1nn(-c2ccccc2)c(Oc2ccc(Cl)cc2)c1CN(Cc1ccco1)CC(O)COC(C)C (stereo not drawn),13,14
CCc1nn2c(C)c(C(=O)OC)nnc2c1-c1ccc(Cl)cc1,2,1
CCCCCCCCCC(=O)N1CCc2nc(Cc3ccccc3C(F)(F)F)[nH]c(=O)c2C1,2,-5
CN1C[C@@H]2CC[C@H](CC1=O)N2C(=O)c1cc(=O)c2ccccc2[nH]1,2,3
Cc1[nH]c(=O)sc1S(=O)(=O)N1CCN(C(=O)C(Sc2ccccc2)c2ccccc2)CC1 (stereo not drawn),3,7
O=C(CC(c1ccccc1)c1cn(Cc2ccccc2)c2ccc([N+](=O)[O-])cc12)NCCCN1CCOCC1 (stereo not drawn),-6,1
CCc1ccc(C(O)c2ncc(-c3ccccc3C)[nH]2)cc1 (stereo not drawn),0,-1
CCCCCn1cc(C2CCN(C(=O)c3c(-c4c(F)cccc4Cl)noc3C)CC2)c2ccccc21,28,16
CCCCCOc1ccc(Nc2ccc(-c3cccc(N(C)C)c3)cn2)cc1,-9,-9
CC12CN3CC(C)(CN(C1)C31C(=O)Nc3ccccc31)C2=O (stereo not drawn),0,0
O=C1NC(=Nc2ccc(Cl)cc2)SC1Cc1cccc2ccccc12 (stereo not drawn),-4,-8
Cc1n[nH]c(C)c1CCC(=O)N1CC[C@@](C)(O)[C@@H](Cc2ccccc2)C1,0,12
Cc1ccc(-c2ccc3c(c2)COCC(=O)N3C(C)C)cc1C,10,4
CCOC(=O)CSc1ccc2nnc(-c3ccncc3)n2n1,0,-1
COc1ccc(CCN(C)C(=O)CCCCCC(C)=O)cc1OC,-2,-12
COc1cc(C(=O)NC(=S)Nc2cc(C)cc(C)c2O)cc(OC)c1OC,0,-1
CC1CCCN(CCOc2ccccc2CN2CCn3cncc3C2)C1 (stereo not drawn),5,3
O=c1c(Cl)c(N2CCc3ccccc3C2)cnn1-c1ccc(F)cc1F,4,1
CC(C)(C)C(=O)N1CCn2nc(C(=O)NCc3ccccn3)cc2C1,14,-4
CNC(=O)[C@@]1(OCc2cccc(C(F)(F)F)c2)CC(OCc2cccc(OC(F)(F)F)c2)[C@@H]2OC(C)(C)O[C@@H]2C1 (stereo partly drawn),5,14
O=C(N[C@H]1CCCNC1)c1cn(C/C=C/c2ccccc2)nn1,1,-2
CC(C)(C)CC(C)(C)N=C1CC(=O)OC12CCCCC2,17,7
COCCNC(=O)C1(C)CCN(Cc2ccccc2-c2ccccc2)C1 (stereo not drawn),0,-2
C(=C\c1nc(-c2ccccn2)n[nH]1)/c1ccccc1,1,-14
CC1=C(C(=O)OCCOc2ccccc2)C(c2ccc3c(c2)OCO3)NC(=O)N1C (stereo not drawn),6,4
CC(=O)Oc1c(-c2ccc(NC(=O)c3ccc(C(F)(F)F)cc3)cc2)c(C(C)C)nn1-c1cccc(F)c1,7,10
COc1ccccc1-c1cc2c(cn1)ncn2-c1cccc(F)c1,11,0
Cc1ccc(NC(=O)Cn2cnc3c(nnn3-c3ccc(C)cc3)c2=O)cc1,-2,3
COCCN(CCOC)Cc1nc2cc(OC)c(OC)cc2c(=O)[nH]1,4,10
Cc1cccn2c(=O)nc(SCC(=O)Nc3ccccc3F)nc12,6,3
CC(C)CNc1ccc2c(n1)C(=O)N([C@H](C)C(=O)N[C@H](CO)c1ccccc1)C2,6,2
O=C(CCC1CCCC1)N1CCc2ccc(O)cc2CC1,7,2
COc1ccc(C(C)NC(=O)Cc2ccccn2)cc1F (stereo not drawn),0,-1
CCC(=O)c1ccc(OCC(=O)N2CCC(n3c(=O)[nH]c4ccccc43)CC2)cc1,11,8
CC1CN(Cn2nc(-c3cccs3)n(CC3CCCO3)c2=S)CCO1 (stereo not drawn),7,2
CN=c1scc(-c2ccc(C)c(C)c2)n1N=Cc1ccc[nH]1,-1,-3
CCc1ncc(C(=O)N(Cc2ccccc2)C2CCN(C)CC2)[nH]1,-20,-22
CN(Cc1ccc(N(C)C)cc1)Cn1[nH]c(C(C)(C)C)nc1=S,-1,0
Cc1cnc(C)c(N2CCN(c3nc4nonc4nc3N3CCSCC3)CC2)n1,-2,13
